# D2 potentiator – human D2 receptor positive allosteric modulation. P14416. DiscoveRx D2 beta-arrestin cells, luminescence, 90 min; 100% = 57 uM dopamine signal. potentiation, % (test concentration not listed). 360,000 compounds, 0.23% hits. AID 624464; active = potentiation of 50% or more; inconclusive = 30% to 50%; inactive = 30% or less;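 note: compound concentration not given in the record; tested on top of an EC20 dose of dopamine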
# Target sequence (P14416 whole entry, looked up): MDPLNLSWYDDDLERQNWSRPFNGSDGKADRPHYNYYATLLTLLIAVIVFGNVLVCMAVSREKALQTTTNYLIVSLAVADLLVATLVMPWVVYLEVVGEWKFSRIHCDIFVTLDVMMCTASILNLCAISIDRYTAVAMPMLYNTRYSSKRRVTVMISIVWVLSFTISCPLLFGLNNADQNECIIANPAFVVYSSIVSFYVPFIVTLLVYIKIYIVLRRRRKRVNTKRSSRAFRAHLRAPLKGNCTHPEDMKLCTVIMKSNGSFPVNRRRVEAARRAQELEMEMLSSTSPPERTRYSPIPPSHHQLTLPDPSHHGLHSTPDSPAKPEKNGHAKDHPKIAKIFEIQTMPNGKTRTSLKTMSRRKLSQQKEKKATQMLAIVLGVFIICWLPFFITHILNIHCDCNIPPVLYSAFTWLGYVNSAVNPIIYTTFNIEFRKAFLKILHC
#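 PathHunter D2 cells, attached overnight at 37 deg C, received compound in DMSO plus dopamine at EC20 (50 nM final) for 90 min at 37 deg C. Beta-arrestin recruitment was read as luminescence after 1 h with detection reagent at ambient temperature.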
# Six1-Eya2 blk – Six1/Eya2 interaction inhibition; Q15475+O00167; AlphaScreen GST-Six1/His-Eya2 binding, biochemical; active compounds read low; control for the full effect not named in the record; activity change, % (concentration not given with the values); 360,000 compounds, 0.56% hits; in the data active = activity change below about -65%; inconclusive = about -30% to -65%; inactive = above about -30%; note: % is set by controls: 0 for no effect and ±100 for the full control effect
#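 Homogeneous AlphaScreen proximity assay pairing GST-Six1 with His-tagged Eya2 (added as 5X mix: 250 nM and 500 nM) in 50 mM Tris pH 8.0, 300 mM NaCl, 1 mM TCEP. Glutathione donor and nickel acceptor beads; 1 h, 37 °C, dark.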
# CtBP-E1A blk – blocks the CtBP interaction with E1A | AlphaScreen GST-E1A/His-CtBP binding, 1536-well; active compounds read low; control for the full effect not named in the record | activity change, % (test concentration not listed) | 340,000 compounds, 0.49% hits | AID 651724; in the data active means activity change below about -65%; inconclusive means about -30% to -65%; inactive means above about -30%; note: % is set by controls: 0 for no effect and ±100 for the full control effect
#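 GST-E1A and His-tagged CtBP (125 nM each as 5X stock) were preincubated with pin-transferred compound for 2 h at 37 °C in the dark, then glutathione donor and nickel acceptor beads were added for 1 h before AlphaScreen reading.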
# D2 agonist – agonists of human D2 dopamine receptor (beta-arrestin); DiscoveRx PathHunter D2 beta-arrestin, luminescence, 90 min; 100% = 57 uM dopamine signal; 360,000 compounds, 0.084% hits; P14416; activation, % (test concentration not listed); in the data active = activation above about 40%; inconclusive = about 15% to 40%; inactive = below about 15%; note: compound concentration not given in the record; the text of the record calls up to 30% inactive
#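 DiscoveRx PathHunter D2 beta-arrestin cells (2,100/well) attached overnight, then compound-stimulated 90 min at 37 C in HBSS/10 mM HEPES/0.1% Tween-20 buffer; beta-galactosidase complementation read by luminescence after 1 h at ambient temperature. Dopamine 57 uM final (EC100) as control.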
# TRPML1 ag – agonists of human TRPML1 channel; 410,000 compounds, 0.12% hits; activation, % (test concentration not listed); AID 624414; TRPML1-expressing cells, Ca2+ dye fluorescence, FDSS; host cell line not named in the record; reference of the full effect not given here; Q9GZU1; in the data active = activation above about 50%; inconclusive = about 30% to 50%; inactive = below about 30%; note: 0% is about no effect; the text of the record puts the active cut at 80%
# Target sequence (Q9GZU1 whole entry, looked up): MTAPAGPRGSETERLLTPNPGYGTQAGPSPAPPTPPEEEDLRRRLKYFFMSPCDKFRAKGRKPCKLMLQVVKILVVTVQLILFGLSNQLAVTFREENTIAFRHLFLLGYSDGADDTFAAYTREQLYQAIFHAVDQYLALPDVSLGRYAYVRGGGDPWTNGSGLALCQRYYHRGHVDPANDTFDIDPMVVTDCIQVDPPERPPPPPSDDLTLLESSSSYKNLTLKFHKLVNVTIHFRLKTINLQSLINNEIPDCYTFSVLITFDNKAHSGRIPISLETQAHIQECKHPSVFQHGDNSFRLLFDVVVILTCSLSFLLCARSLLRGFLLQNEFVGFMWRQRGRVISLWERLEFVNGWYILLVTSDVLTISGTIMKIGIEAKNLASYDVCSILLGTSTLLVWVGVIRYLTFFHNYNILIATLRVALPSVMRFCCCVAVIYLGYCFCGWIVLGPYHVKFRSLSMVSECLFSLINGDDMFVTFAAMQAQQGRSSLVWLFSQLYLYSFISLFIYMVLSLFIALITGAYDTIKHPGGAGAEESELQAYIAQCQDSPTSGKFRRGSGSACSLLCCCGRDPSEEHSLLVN
#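 Calcium fluorescence on an FDSS kinetic reader gave the read-out. Tet-induced TRPML1-DL cells were plated overnight, dye-loaded (Ca8 with quencher, 45-90 min, room temperature, dark), then read 110 s after compound addition, and again 110 s after 4uM final 54-4 (EC80).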
# PINK1 expr mod – modulators of PINK1 expression. PINK1 immunofluorescence, high-content cytometry, 24 h. Potency, µM (titrated, usually from 76.6 µM), inactives show at the highest dose activation (PINK1 increase), most hits filed as activators. 410,000 compounds, 0.2% hits; active = well fitted activation curve with a large enough effect; inconclusive = small, poorly fitted or top-dose-only effect; inactive = flat fitted curve, though single readings scatter; cell line not stated here;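 note: potency is the fitted concentration of half-maximal effect; % of control where 0% means no effect; nearly all actives have a fitted effect of over 65% in size; a mitochondrial uncoupler was the plate control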
#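 Stable cell line, 250 cells/well, 12 h attachment; compounds pinned at 5 concentrations, 24 h; CCCP control. Fixed with nuclear dye, primary antibodies 12 h at 10 degrees C, secondary plus cell stain; laser-scanning cytometer read.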
# * marks the source's active call; other numbers are inactive results; ? = inconclusive; . = no result given; & = joins results of further samples; [ ] = another dose, or the depositor's remark.
# Every second line gives: D2 potentiator	Six1-Eya2 blk	CtBP-E1A blk	D2 agonist	TRPML1 ag	PINK1 expr mod
> Fc1c(F)c(C(F)(F)F)c(F)c(F)c1N/N=C\c1cccs1
    16	5	7	6.7	1.3	-0.1%[38.3 µM]
> O=C(N/N=C/c1ccco1)c1ccn[nH]1
    -5	-3	5	-3.7	-0.2	-0.8%
> O=c1c2ccccc2c(C=Nc2ccc(O)cc2)c(O)n1Cc1ccccc1
    -4	-3	-8	-0.5	2.2	7.6%
> Cc1ccc(S(=O)(=O)NCCNc2ccc([N+](=O)[O-])cc2C(F)(F)F)cc1
    -4	-16	-2	-2.2	1.1	1.9%
> CCOC(=O)c1csc(N)n1
    -6	16	3	-1.4	-0.7	0.8%
> NC(=O)C1CCN(C(=S)NCc2ccc3c(c2)OCO3)CC1
    -5	-1	.	6.0	0.4	1.2%
> COc1ccc(OC)c(-n2c(=S)[nH]c3cc(C(=O)N4CCC(C(N)=O)CC4)ccc3c2=O)c1
    -12	-2	1	-3.5	-0.6	-1.6%
> COC(=O)c1oc(-c2ccccc2)nc1C
    -10	12	-11	6.1	4.2	-1.0%
> Cc1cc(C)nc(-n2nc(C)cc2NC(=O)c2ccc(S(=O)(=O)N3CCOCC3)cc2)n1
    -11	5	.	-5.0	-1.0	-0.1%
> O=C(c1cc(-c2ccc(Cl)cc2)n(-c2ccc(Cl)cc2)n1)N1CCOCC1
    -9	-12	-1	-3.8	2.2	-0.9%
> CCCc1cc(C(=O)NCc2cccs2)no1
    -2	1	3	-2.3	-0.1	-0.8%
> O=C(COC(=O)c1ccccc1)Nc1cccc(S(=O)(=O)NC2=NCCCCC2)c1
    -14	-7	8	-3.0	0.8	-0.2%
> CCc1ccc(C(=O)CCC(=O)Nc2ccc(OC)c(S(=O)(=O)N3CCCCC3)c2)cc1
    -21	-4	0	5.0	1.7	-1.0%
> O=C1CC2(CCCC2)C(=O)N1CN1CCN(S(=O)(=O)c2ccc(F)cc2F)CC1
    -15	7	8	0.3	0.6	1.0%
> CCOc1cc(CNCc2ccccc2)ccc1OCC(=O)NC1CCCCC1
    -34	-2	-1	-4.8	-0.3	5.0%
> Cc1cc2c(Nc3cccc(O)c3)ncnc2s1
    -2	-3	.	2.8	-0.8	0.3%
> CC(NC(=O)C(=O)NCCC1=CCCCC1)c1ccccc1 (configuration not stated)
    -9	11	-4	-0.9	1.3	2.9%
> N#C/C(=C(\O)C(F)(F)F)c1nnc2n1CCCCC2
    -7	-6	-1	-3.8	-0.8	-0.4%
> NC(=O)NC(CC(=O)NCCCc1ccccc1)c1ccc(Cl)cc1 (configuration not stated)
    -26	-13	-13	0.6	1.7	0.2%
> CCCn1ncc([C@@H]2C[C@H]3CN(Cc4cccc(Cl)c4)C(=O)[C@]34CCCN24)c1C
    -13	-4	4	-0.1	0.6	-2.4%
> Cc1ccc(OCCn2c(=O)oc3ccc(C)cc32)cc1
    -20	15	20	5.5	3.0	2.5%
> CC(C)(C)c1ccc(Cn2nc(CC(=O)O)c3ccccc3c2=O)cc1
    -15	3	12	0.2	2.9	0.0%
> Cc1cccc(COc2ccccc2C(=O)NC2CCC(O)CC2)c1 (configuration not stated)
    -3	4	1	-1.4	0.3	0.1%
> OCC[C@@H]1C[C@H](O)[C@@H](O)[C@@]2(CCCCO2)O1
    -11	9	8	-1.4	-0.6	2.5%
> CC(C)OC(=O)c1cc(NC(=O)C2C3CCC(O3)C2C(=O)O)cc(C(=O)OC(C)C)c1 (configuration not stated)
    -3	19	2	-5.3	2.1	1.9%
> CSc1ccccc1C(=O)Nc1ncc(C)s1
    4	-3	0	-3.5	3.7	-0.4%
> CC(C)=CCN1CCN(Cc2cnc(-c3ccccc3)s2)CC1CCO (configuration not stated)
    -22	-1	.	-1.7	-0.5	-1.0%
> S=C(NCCc1ccccc1)NC1CC2CCC(C1)N2Cc1ccccc1 (configuration not stated)
    -23	-2	-6	-9.5	-0.2	7.7%
> C[C@H](NC(=O)c1[nH]cnc1C(=O)N[C@H](C)c1ccccc1)c1ccccc1
    -3	-2	0	-1.2	0.6	2.9%
> O=C(CNC(=O)c1ccc(Oc2ccccc2)cc1)OCc1ccc(Br)cc1
    -2	8	9	-8.1	-0.1	2.6%
> CCN(CC)S(=O)(=O)c1ccc2[nH]cc(C(=O)NCCc3ccc(OC)c(OC)c3)c(=O)c2c1
    7	-5	-17	-2.1	-1.3	-0.4%
> O=C(COC(=O)c1nc(Cl)ccc1Cl)Nc1ccc(Cl)cc1
    -7	1	.	-3.7	-0.6	0.0%
> CCOc1ccc(S(=O)(=O)N(CC)CC(=O)NC2CC2)cc1
    -14	0	-5	-5.5	2.1	-1.0%
> CCCCNS(=O)(=O)c1cccc(NC(=O)[C@H]2C[C@H](O)[C@@H](CO)O2)c1
    -9	5	8	-1.2	0.0	-0.5%
> COc1cccc(-c2cnc(C(O)c3c(C)cc(C)cc3C)[nH]2)c1 (configuration not stated)
    -6	-3	0	-3.5	-0.2	1.0%
> CS(=O)(=O)c1ccc(Oc2ccc(-c3nnco3)cc2)c([N+](=O)[O-])c1
    7	-7	0	1.8	0.0	-1.7%
> CC(C)C1NC2(C(=O)c3ccccc3C2=O)C2C(=O)N(c3ccc(F)cc3)C(=O)C12 (configuration not stated)
    0	-7	-10	-5.2	12	1.1%
> COc1cccc2cc(C(=O)N(Cc3ccccc3)CC3CCCO3)c(=O)oc12 (configuration not stated)
    -18	0	4	-4.5	-1.0	-0.4%
> COC(CNC(=O)CNC(=S)N(CCCN1CCOCC1)Cc1cccs1)OC
    -5	-2	-4	-4.9	0.4	0.4%
> CCOC(=O)c1nnc(-c2ccc(C)cc2)nc1Sc1cccc(Cl)c1
    -16	0	-2	-2.5	0.9	6.9%
> O=C(CCNC(=O)C1CCN(S(=O)(=O)c2ccccc2)CC1)NCCc1ccc(Cl)cc1
    -9	0	-1	2.0	0.1	-1.0%
> COc1ccc(CC(=O)N(C)CC(=O)Nc2ccccc2SC)cc1
    -1	0	3	-0.9	-1.6	0.6%
> COc1ccccc1CNC(=O)CCNS(=O)(=O)c1cccc2nsnc12
    -2	1	2	-0.6	-0.4&-0.3	0.9%
> C=CCON1C(=O)c2ccccc2C1=O
    -14	2	3	-1.2	-0.1	0.3%
> O=C(C[C@H]1C/C=C\CC[C@H](Cc2ccc(F)cc2)C(=O)OC[C@@H]2CCCN2C1=O)N[C@H](CO)Cc1ccccc1
    0	21	0	3.3	-0.2	-0.5%
> CCN(Cc1ccccc1)C(=O)C1CCN(S(=O)(=O)c2ccc3c(c2)OCCO3)CC1
    10	5	6	-2.8	-0.1	1.1%
> CC(=O)c1cccc(NC(=O)c2ccc3c(c2)CCN3S(=O)(=O)c2ccccc2)c1
    -13	2	.	-0.7	-1.2&0.9	0.5%&-0.8%
> COC(=O)c1ccc(S(=O)(=O)N2C3CCC2CC(NC(=O)NC2CCCCC2)C3)cc1 (configuration not stated)
    -7	7	0	-0.7	-0.3	1.1%
> COCCNC(=O)c1ccc2snnc2c1
    -3	2	1	-4.1	-0.4	0.1%
> O=S(=O)(NC1CC1)c1ccc(Cl)cc1F
    5	5	3	-2.6	-0.4	6.8%
> COc1ccc(CCNC(=O)C2CCC(=O)N(CC3CCCCC3)C2)cc1 (configuration not stated)
    14	7	-5	-1.5	0.0	-3.3%
> Cc1cc(C)c(C(=O)NCCCN2CCOCC2)c(C)c1
    -14	2	-1	-2.2	-0.2	1.3%
> NC1=NC(=O)/C(=C/c2cccc(-c3ccc(S(N)(=O)=O)cc3)c2)S1
    0	2	4	0.2	0.2	0.4%
> OC(c1ccccc1)C(CN1CCOCC1)c1ccccc1 (configuration not stated)
    -1	-4	8	-0.4	1.1	7.8%
> Cc1ccccc1NC(=O)Cn1c(CCC(=O)O)ccc1-c1cccs1
    -7	3	8	-19	-0.7	-0.5%
> COc1ccc(OC)c2nc(-c3ccncc3)ccc12
    -6	-18	-1	-9.0	.	0.6%
> COc1cccc(CN2CCNC(=O)C2CC(=O)N(Cc2cnn(C)c2)C(C)C)c1 (configuration not stated)
    2	7	0	1.5	0.2	0.8%
> CCn1c(=O)cc(SCC(=O)NCCCN2CCN(c3ccccc3F)CC2)c2ccccc21
    ?	-7	-16	?	3.3	-0.1%[38.3 µM]
> CC(=O)C[C@H](O)CC(=O)[C@H]1OC(=O)[C@@H](C)CCCCc2ccccc21
    2	4	4	-0.8	-0.4	0.1%
> COc1ccc2c(c1)oc(=O)c1cc(OC)ccc12
    -16	9	5	4.2	.	-0.4%

# Later entries.
# Every second line gives: D2 potentiator	Six1-Eya2 blk	CtBP-E1A blk	D2 agonist	TRPML1 ag	PINK1 expr mod
> Cc1ccc(S(=O)(=O)NCc2ccco2)cc1C(N)=O
    -2	-1	0	-16	0.5	1.6%
> N#CC1=C(N)N=C(SCc2ccccc2)C(C(N)=O)C12CCCCC2 (configuration not stated)
    -12	-3	-2	-4.9	0.5	?
> O=C(CNC(=S)N(Cc1ccccc1)Cc1cccnc1)NCc1ccccc1
    0	9	1	-6.4	0.1	0.0%
> O=C(NNS(=O)(=O)c1ccc(Cl)cc1)c1cc(-c2ccccc2)nc2ccccc12
    -14	-4	-3	-1.3	-0.5	1.3%
> CC(C)(C)OC(=O)C[C@@H]1C/C=C\C[C@@H](CC(=O)N[C@@H](CO)Cc2ccccc2)C(=O)N2CCC[C@H]2COC1=O
    0	3	7	-0.4	0.0	0.0%
> CCOc1ccc(/C=N/NC(=O)c2cc3c(OC)cccc3[nH]2)cc1
    -16	3	6	-6.9	0.9	-0.7%
> CCOC(=O)CN1N=C(c2ccc(C)cc2)CCC1=O
    -7	-9	-9	-4.8	-1.5	-0.6%
> COc1ccc(C(=O)NCC(c2cccs2)N2CCOCC2)cc1OC (configuration not stated)
    -4	4	-2	4.5	1.2	2.1%
> Cc1ccc(CNC(=O)C2CCC(=O)N(CCc3ccc(Cl)cc3)C2)s1 (configuration not stated)
    -27	-11	5	-1.8	-0.9	-0.6%
> CC(OC(=O)c1ccc2ccccc2n1)C(=O)c1ccccc1 (configuration not stated)
    -4	0	0	-5.9	.	0.6%
> Cc1cccc(Cn2c(N3CCc4ccccc4C3)nc3c2c(=O)[nH]c(=O)n3C)c1
    20	-7	0	0.7	-0.2	7.5%
> CN(C)C(=O)c1cc(C(=O)c2ccccc2)c[nH]1
    -11	2	1	12	0.8	-1.6%
> O=C(O)c1cc(NC(=O)c2cccc(F)c2)cc(NC(=O)c2cccc(F)c2)c1
    -11	-17	-1	-0.9	1.2	-0.6%

# Ordered by count of non-hydrogen atoms (high to low): some entries from above.
# Every second line gives: D2 potentiator	Six1-Eya2 blk	CtBP-E1A blk	D2 agonist	TRPML1 ag	PINK1 expr mod
> O=C(NNS(=O)(=O)c1ccc(Cl)cc1)c1cc(-c2ccccc2)nc2ccccc12
    -14	-4	-3	-1.3	-0.5	1.3%
> COc1ccc(C(=O)NCC(c2cccs2)N2CCOCC2)cc1OC (configuration not stated)
    -4	4	-2	4.5	1.2	2.1%
> N#CC1=C(N)N=C(SCc2ccccc2)C(C(N)=O)C12CCCCC2 (configuration not stated)
    -12	-3	-2	-4.9	0.5	?

# Bioassay records from PubChem BioAssay.
